HIV peptide binding – inhibitors of HIV fusion peptide binding, primary screen, biochemical, uHTS, fluorescence dequenching (AID 1986); cell-free peptide binding, fluorescence dequenching, 30 min; higher % means a stronger effect; inhibition, % at 20 µM, or IC50 in µM where a hit was titrated; hit rate 0.3% among 290,000; in the data active = inhibition mostly above about 52%, no sharp cut-off; inactive = mostly below about 76%; note: some results filed as inactive read as strong as hits
GPR35 arrestin U2OS – inhibition of zaprinast-stimulated GPR35 beta-arrestin translocation – imaging, U2OS, beta-arrestin-GFP, zaprinast agonist, primary screen (AID 2058) | U2OS GPR35 beta-arrestin-GFP translocation imaging, zaprinast antagonism; higher % means a stronger effect | one-dose inhibition, % at 10 µM; IC50 in µM for titrated hits | hit rate 0.052% among 290,000;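 active = inhibition of at least 50% with at least 30 cells and total cytoplasm GFP at most 10,000,000; inconclusive = under 30 cells or total GFP of 10,000,000 plus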
Myeloid diff 2 – myeloid differentiation induction. hit rate 1% among 360,000. ER-HoxA9 myeloid progenitors, lysozyme-GFP differentiation, flow cytometry. calls only at 10 µM. AID 624256;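 active = normalized GFP-positive differentiation at or above the plate's own cutoff, the solvent-only control mean plus 3 SD; inconclusive = no clear call, values can overlap the other calls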;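 note: cells exposed to compound for four days before flow analysis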
KOR beta-arrestin – KOR agonists, beta-arrestin recruitment, primary screen, cell-based, luminescence, uHTS (AID 1777). KOR beta-arrestin recruitment, luminescence; higher % means a stronger effect. one-dose activation, % at 10 µM; EC50 in µM for titrated hits. hit rate 0.02% among 280,000; in the data active = activation above about 50%, passing the limit was not always enough; note: a part of the inactive calls stands beside numbers as strong as those of hits
GPR55 activation – selective activators of receptor GPR55 – imaging, U2OS cells, beta-arrestin-GFP redistribution, primary screen (AID 1961); hit rate 0.048% among 290,000; one-dose activation, % at 10 µM; EC50 in µM for titrated hits; U2OS GPR55 beta-arrestin-GFP redistribution imaging; higher % means a stronger effect;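 active = activation above 40% with more than 50 cells counted in the well; inconclusive = wells holding fewer than 50 cells, flagged as toxic or sparse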;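 note: U2OS osteosarcoma cells stably expressing GPR55 and beta-arrestin-GFP; plate controls were DMSO negative control for no effect and LPI positive control for full effect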
GPR55 antagonists – GPR55 antagonists blocking LPI-driven arrestin recruitment, primary screen, imaging, U2OS, beta-arrestin-GFP, LPI agonist (AID 2013). U2OS GPR55 beta-arrestin-GFP translocation imaging, LPI antagonism; higher % means a stronger effect. one-dose inhibition, % at 10 µM; IC50 in µM for titrated hits. hit rate 0.13% among 290,000;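 active = spots per cell inhibited over 60%, with over 100 cells counted and total cytoplasm intensity under 500,000; inconclusive = wells with under 100 cells, flagged as likely toxic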;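 note: U2OS cells stably carrying GPR55 and arrestin-GFP stimulated by 5 µM LPI near EC80; imaged beta-arrestin-GFP aggregate spots per cell after agonist stimulation; plate controls were LPI-stimulated DMSO wells for no effect and DMSO wells without LPI for full effect; some results filed as inactive read as strong as hits; confirmed hits need IC50 under 10 µM and bright autofluorescent wells are also inconclusive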
Myeloid diff 2 GFP+ MAC1+ % – further read-out of Myeloid diff 2, marked with its call; GFP+ MAC1+ double positive, %; measured here: differentiation confirmed by MAC1 staining
* hit, by the source's call; i = inactive; ? = inconclusive; nt = not tested or not shown; + = active, no number.

SMILES	HIV peptide binding	GPR35 arrestin U2OS	Myeloid diff 2	Myeloid diff 2 GFP+ MAC1+ %	KOR beta-arrestin	GPR55 activation	GPR55 antagonists
CC(=O)Nc1ccc(NCN2C(=O)C3C4CCC(C4)C3C2=O)cc1 (stereo not given)	-3.0%	11.4%	i	2.1	0.5%	0.2%	19.9%
O=C(NNS(=O)(=O)c1ccc(Cl)cc1)c1sccc1-n1cccc1	2.5%	8.0%	i	0.5	2.5%	-0.2%	5.7%
CN1C(=O)CC(Sc2ccccc2C(=O)O)C1=O (stereo not given)	-0.3%	16.6%	i	9.2	-2.5%	0.0%	6.1%
O=C(Nc1ccc(Cc2ccncc2)cc1)c1ccc(S(=O)(=O)N2CCOCC2)cc1	-0.6%	-2.6%	i	0.5	-1.9%	0.0%	-9.1%
COc1cc(NC(=O)CSc2ncnc3c2cnn3Cc2ccccc2)cc(OC)c1	0.9%	-3.3%	i	0.4	-0.8%	0.0%	4.8%
COC(=O)c1cn(NC(=O)c2cccc(OC)c2)c(=O)c2ccccc12	3.1%	-5.9%	i	1.7	5.3%	0.5%	nt
CCC(C)Sc1nnc(CSc2nc3nc(C)cc(C)n3n2)o1 (stereo not given)	-3.4%	5.9%	i	2.2	4.3%	0.3%	-11.2%
O=C(OCc1ccc(C(=O)c2ccccc2)cc1)c1cccc(-c2nnc(-c3ccccc3)o2)c1	-0.8%	26.0%	i	0.4	-2.3%	-0.1%	10.1%
Cc1sc2ncnc(N3CCN(c4ncccn4)CC3)c2c1C	2.9%	-18.4%	i	0.7	-5.2%	-0.3%	9.3%
O=C(NCc1ccccc1)c1sc(=S)n2c1[nH]c(=O)c1ccccc12	52.6%	2.6%	i	1.5	5.2%	-0.1%	11.9%
CCC(C(=O)NC(C)(C)C)N(C(=O)Cn1nnc(-c2ccccc2F)n1)c1cccc2c1CCCC2 (stereo not given)	0.1%	9.5%	i	2.4	-1.3%	-0.1%	27.2%
c1ccc(-n2cnc3cc(NCc4cccs4)ccc32)cc1	-3.3%	-3.4%	?	nt	4.6%	24.2%	-15.9%
Cc1nn2c(c1-c1ccccc1)NC1=C(C(=O)CCC1)C2c1ccccc1 (stereo not given)	-2.9%	1.0%	i	0.7	0.2%	-0.2%	22.7%
COC(=O)c1ccc(Sc2ccccc2NS(=O)(=O)c2ccc(C)cc2)nc1	-0.7%	9.5%	i	1.1	2.6%	0.0%	-3.3%
CCCC(C)c1nnc(NC(=O)c2cc(C(=O)OC)cc([N+](=O)[O-])c2)s1 (stereo not given)	1.3%	-7.1%	i	0.9	2.6%	-0.1%	13.4%
CCOC(=O)NC(NC(=O)OCC)C(=O)c1ccccc1	0.2%	10.5%	i	5.9	4.0%	-0.1%	2.2%
CCOc1ccc(OC(=O)NC(c2ccccc2)C(Cl)(Cl)Cl)cc1 (stereo not given)	-0.8%	-0.9%	i	1.1	6.5%	-0.1%	3.8%
CCCNC(=O)N1CCC(C(=O)c2ccc(F)cc2)CC1	0.2%	-7.0%	i	0.9	7.7%	-0.1%	30.6%
O=C(Nc1ccc(F)cc1)Nc1nnc(-c2ccncc2)s1	4.7%	3.3%	i	3.0	-3.0%	0.3%	-2.9%
Cc1cc(C)n(S(=O)(=O)Cc2ccccc2)n1	2.9%	-1.7%	i	6.8	-5.4%	-0.1%	18.6%
CCOC(=O)CSC1=C(C#N)C(c2ccccc2F)C(C(C)=O)=C(C)N1 (stereo not given)	0.8%	2.2%	i	0.8	5.1%	0.6%	15.0%
Cc1cccc(Nc2ccccc2)c1	-0.5%	-11.0%	i	0.9	6.0%	-0.2%	-8.8%
Cc1nnc(NC(=O)c2sc3nc(-c4cccs4)cc(C(F)(F)F)c3c2N)s1	54.9%	0.61µM*	+	70.0*	0.7%	1.3%	?
c1coc(CNc2ncnc3nc[nH]c23)c1	2.9%	-7.4%	i	3.0	2.2%	-0.1%	-2.8%
Cc1ccc(NC(=O)c2c(C(F)(F)F)nn(C)c2Cl)cc1C	0.1%	5.1%	i	1.8	3.9%	0.2%	1.3%
CCCS(=O)(=O)N1CCC(C(=O)N2CCN(Cc3ccccc3)CC2)CC1	-1.4%	-15.2%	i	0.7	-2.3%	0.4%	0.2%
CCc1ccc(OCC(=O)NCCN(C)C)c(Br)c1	1.1%	-4.4%	i	3.4	-2.2%	-0.1%	16.1%
O=C(N/N=C/c1c(Cl)cccc1Cl)c1cccc(F)c1	-0.9%	8.8%	i	6.6	1.0%	0.2%	8.5%
Nc1n[nH]c(-c2ccccc2)n1	-2.0%	-3.2%	i	0.5	1.1%	-0.1%	1.5%
CCCCCCNCc1cccc(Br)c1	-2.2%	-14.2%	i	1.5	-0.9%	-0.1%	nt
CCCC(=O)N1CCN(c2ccc(NC(=O)C(C)(C)C)cc2)CC1	1.9%	8.0%	i	0.5	5.9%	-0.1%	19.5%
O=C(NCc1cccnc1)C1c2ccccc2C(=O)N1C1CCCCCCC1 (stereo not given)	0.6%	-3.8%	i	3.9	4.1%	-0.1%	13.4%
CCC(C)n1c(C)nc2c(c1=O)c1nc3ccccc3nc1n2CCC1=CCCCC1 (stereo not given)	6.2%	10.6%	i	1.1	5.8%	0.2%	17.1%
COc1ccccc1Cn1nnc2c(=O)[nH]c(C3CCN(C(=O)c4ccc(F)cc4)CC3)nc21	-1.7%	-0.2%	i	1.4	1.8%	0.1%	21.8%
CC(=O)Nc1cccc(NC(=O)CSc2nnc(Cc3cccn3C)n2-c2ccc(F)cc2)c1	1.8%	3.8%	i	2.5	-7.0%	-0.3%	-4.4%
O=C(CSc1ccccc1C(=O)O)NCc1ccco1	-0.2%	0.4%	i	0.4	0.7%	-0.1%	10.3%
Cc1ccc2cc(C#N)c(SCC(=O)N3CCCc4ccccc43)nc2c1C	5.9%	0.6%	nt	nt	2.1%	1.1%	1.9%
CCOCCCn1c(=N)c(C(=O)NCc2ccc3c(c2)OCO3)cc2c(=O)n3cccc(C)c3nc21	-4.6%	15.2%	i	5.1	2.3%	-0.1%	16.1%
Cc1cccc(NC(=S)NC2CC3CCC(C2)N3Cc2ccco2)c1C (stereo not given)	0.0%	7.1%	i	6.5	2.7%	0.2%	6.1%
Cc1cccc2c1OCC/C2=N\NC(=O)COc1ccccc1Cl	-3.6%	-2.6%	i	13.1	0.6%	-0.1%	-6.6%
CC1CCN(CC(C)CNC(=O)c2cc(-c3ccccn3)nc3ccccc23)CC1 (stereo not given)	0.8%	17.0%	i	4.6	-1.8%	-0.1%	9.0%
CCOC(=O)c1[nH]c2ccc(OC)cc2c1NC(=O)NC(C)C	1.2%	1.1%	i	1.3	0.0%	-0.1%	23.9%
Cc1nnc(N(C)C(=O)c2ccccn2)s1	-0.5%	19.3%	i	1.3	4.2%	-0.2%	0.0%
COc1ccc(C(=O)N/C(=C\c2cccs2)c2nc3ccccc3[nH]2)cc1OC	1.9%	-14.1%	i	17.4	4.3%	-0.1%	-9.5%
Cc1ccc(NC2=C(C(=O)c3ccccc3)N(C)S(=O)(=O)c3ccccc32)cc1	1.6%	-18.1%	i	1.1	9.6%	0.2%	4.0%
CC1=CC(C)(C)N(C(=O)c2ccccc2)c2ccc(C)cc21	-0.9%	12.1%	i	0.7	4.2%	-0.1%	43.9%
Cc1ccc(S(=O)(=O)NCC(=O)OC(C)C(=O)Nc2ncc(Cl)cc2Cl)cc1 (stereo not given)	-1.4%	2.3%	i	2.6	3.3%	0.0%	nt
O=C(CSc1nnc(-c2cccnc2)o1)Oc1ccccc1	-0.6%	19.5%	i	1.8	2.0%	-0.1%	14.2%
N#Cc1c(Cl)nc(SCc2ccccc2)nc1-c1ccccc1	-2.7%	10.7%	nt	nt	-0.5%	0.0%	-1.5%
COc1ccc(CCNc2c(C)c(C)nc3ncnn23)cc1	3.3%	-6.4%	i	7.1	-0.1%	0.2%	nt
O=C(c1c(F)cccc1F)N1CCN(c2ccccc2F)CC1	-0.2%	0.9%	i	0.3	17.9%	-0.1%	7.3%
O=c1c2ccccc2nc(-c2ccc(Cl)cc2Cl)n1CCCn1ccnc1	0.2%	5.7%	i	0.6	-2.1%	-0.1%	3.9%
O=C(COc1ccc(Cl)cc1)Nc1ccccc1CO	-0.6%	-2.5%	i	0.5	-6.6%	0.6%	10.9%
O=c1c2cc(Br)ccc2nc(-c2cccc(C(F)(F)F)c2)n1O	20.6%	9.7%	i	1.1	-1.6%	-0.1%	12.5%
Cc1cccc(-n2ncc3c(NCCCN4CCCC4=O)ncnc32)c1	-0.6%	-2.6%	i	0.9	0.2%	-0.1%	-4.6%
CCOC(=O)c1c(C)[nH]c(C(=O)COC(=O)c2ccccc2NC(=O)c2ccco2)c1C	2.2%	5.9%	i	1.1	2.0%	-0.1%	6.7%
CCC(C)(C)n1nnnc1C(C(C)C)N(CCCO)Cc1cc2cc(C)ccc2[nH]c1=O (stereo not given)	3.3%	5.3%	i	0.6	-2.8%	-0.1%	32.5%
Nc1cccnc1Sc1ccc(Cl)cc1	0.4%	15.6%	i	0.8	-1.0%	0.0%	7.2%
Cc1oc2cc(O)ccc2c(=O)c1-c1cnn(-c2ccccc2)c1	2.1%	8.8%	i	1.0	-2.1%	-0.1%	19.7%
CSc1nc(N2CCOCC2)c2c3c(sc2n1)CCC3	-0.2%	-4.8%	i	0.8	-2.7%	-0.2%	7.8%

Quoted from the listing for reference:
SMILES	HIV peptide binding	GPR35 arrestin U2OS	Myeloid diff 2	Myeloid diff 2 GFP+ MAC1+ %	KOR beta-arrestin	GPR55 activation	GPR55 antagonists
CC1=CC(C)(C)N(C(=O)c2ccccc2)c2ccc(C)cc21	-0.9%	12.1%	i	0.7	4.2%	-0.1%	43.9%
Cc1ccc(S(=O)(=O)NCC(=O)OC(C)C(=O)Nc2ncc(Cl)cc2Cl)cc1 (stereo not given)	-1.4%	2.3%	i	2.6	3.3%	0.0%	nt

The results go on.
SMILES	HIV peptide binding	GPR35 arrestin U2OS	Myeloid diff 2	Myeloid diff 2 GFP+ MAC1+ %	KOR beta-arrestin	GPR55 activation	GPR55 antagonists
O=S(=O)(NC1CCCCC1NCc1ccco1)c1ccc(Cl)cc1 (stereo not given)	-1.0%	12.6%	i	1.5	1.8%	-0.1%	5.3%
N#Cc1nc(-c2cccs2)oc1NCc1ccccc1	-1.2%	12.0%	i	0.4	4.4%	-0.2%	-12.4%
COc1ccc(C2CC(=O)C(C=NCCN3CCOCC3)=C(O)C2)cc1 (stereo not given)	2.8%	9.5%	nt	nt	-0.2%	-0.1%	23.1%
Cc1cc2ccccc2n1CCNC(=O)c1ccccc1	5.7%	14.2%	i	0.6	-2.2%	-0.1%	4.8%
CC1CCN(CCCCOc2ccccc2[N+](=O)[O-])CC1	-0.7%	-6.7%	i	7.3	4.3%	0.2%	18.9%
COc1ccc(/C=N/NC(=O)Cc2csc(Nc3cccc(C(F)(F)F)c3)n2)cc1C	2.5%	1.2%	i	1.0	6.4%	-0.1%	-4.0%
Cc1cc(C(=O)N/N=C/C=C/c2ccc3c(c2)OCO3)n[nH]1	-1.6%	-18.1%	i	0.9	0.5%	0.2%	17.2%
CCSc1nnc(NC(=O)CSc2nnc(Cc3cccn3C)n2-c2ccc(C)cc2)s1	5.7%	1.0%	i	7.9	-6.1%	0.9%	10.4%
COc1ccc(CCNC(=O)c2ccc(CS(=O)(=O)c3ccc(Cl)cc3)o2)cc1OC	-1.6%	10.9%	i	12.4	-1.8%	-0.2%	-7.9%
COc1ccc(CNC(=O)Cc2c(C(=O)O)[nH]c3ccccc23)cc1	4.6%	0.3%	i	1.4	1.3%	-0.1%	-0.4%
CC(=O)Nc1nc2ccc(Br)cc2s1	1.1%	5.6%	i	0.3	-4.4%	0.0%	-20.2%
COc1ccccc1Oc1ccc2c(c1)C(=O)N(c1ccc(C)cc1)C2=O	3.0%	7.3%	i	1.0	3.1%	1.1%	10.4%

Compound activity as filed in PubChem BioAssay.

A portion of the library (hit frequency here may not be typical).
